Source: PubChem
2A StopGo: FMDV 2A StopGo reporter, luciferase signal; human cells with a luciferase reporter of 2A StopGo recoding; control for the full effect not named in the record; Potency, µM (series often up to 57.9 µM), without a hit: top-dose signal change, negative = less light; 410,000 compounds, 1.2% hits; AID 1159524; active = well fitted falling curve with a large enough effect; inconclusive = small, poorly fitted or top-dose-only effect; inactive = no such curve, though single readings can be large or run the other way; tested in HEK293T cells; further: on the % scale 0 is the no-effect control and ±100 the full control effect; nearly all actives have a fitted effect of over 45% in size; luciferase light after 4 h
SARS PLpro yeast: inhibitors of SARS-CoV papain-like protease in yeast; S. cerevisiae expressing SARS-CoV PLpro, growth rescue; control for the full effect not named in the record; Potency, µM (series often up to 32.9 µM), for the others: at the highest dose activity, positive = growth rescue; 330,000 compounds, 0.19% hits; active means well fitted rising curve with a large enough effect; inconclusive means small, poorly fitted or top-dose-only effect; inactive means no such curve, though single readings can be large or run the other way; further: 0% is about no effect; nearly all actives have a fitted effect of over 55% in size; growth read by luminescence after 48 h
NS1 function inh: blocks influenza NS1 protein function. S. cerevisiae slowed by influenza A NS1, growth recovery by OD600. Potency, µM (highest dose often 46.1 µM), for the others: at the highest dose activity, positive = more growth. 270,000 compounds, 0.4% hits; active means well fitted rising curve with a large enough effect; inconclusive means small, poorly fitted or top-dose-only effect; inactive means no such curve, though single readings can be large or run the other way; further: nearly all actives have a fitted effect of over 50% in size
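OD600 was taken as the measure of yeast growth restored by compound in an NS1-expressing S. cerevisiae strain. Cells had been washed out of glucose medium and diluted 1:100 into galactose -URA medium, pH 6.0.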
Lassa entry inh: blocks Lassa virus binding to or entry into cells; Lassa virus pseudotype entry inhibition, cell reporter; control for the full effect not named in the record; Potency, µM (doses to about 37.9 µM), without a hit: top-dose activity change, negative = inhibition, actives largely listed as inhibitors; 300,000 compounds, 1.2% hits; AID 540256; active means well fitted inhibition curve with a large enough effect; inconclusive means small, poorly fitted or top-dose-only effect, or effect the other way; inactive means flat fitted curve, though single readings scatter; tested in HEK293 cells; further: on the % scale 0 is the no-effect control and ±100 the full control effect; nearly all actives have a fitted effect of over 50% in size; luciferase read-out
Marburg entry inh: blocks Marburg virus binding to or entry into cells; 300,000 compounds, 1.8% hits; Marburg virus pseudotyped entry inhibition, cell reporter; control for the full effect not named in the record; about a third of the inactives were read at about 46 µM; Potency, µM (titrated, usually from 37.8 µM), inactives show at the top dose activity change, negative = inhibition, most hits filed as inhibitors; active = well fitted inhibition curve with a large enough effect; inconclusive = small, poorly fitted or top-dose-only effect, or effect the other way; inactive = flat fitted curve, though single readings scatter; tested in HEK293 cells; about a fifth of its hits are not listed in these tables; further: on the % scale 0 is the no-effect control and ±100 the full control effect; luciferase read-out
Cruzain inh Det: cruzain (T. cruzi) inhibition with detergent; 200,000 compounds, 0.43% hits; Potency, µM, for inactives: max response, negative = inhibition, hits mostly inhibitors; P25779; purified cruzain, Z-FR-AMC fluorescence, 0.01% Triton; AID 1478;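 further: plate controls were neutral wells for no effect and buffer without enzyme for full effect; nearly all actives have a fitted effect of over 40% in size; top concentration of the series not given in the record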
Target sequence (P25779 123-467 limits assumed): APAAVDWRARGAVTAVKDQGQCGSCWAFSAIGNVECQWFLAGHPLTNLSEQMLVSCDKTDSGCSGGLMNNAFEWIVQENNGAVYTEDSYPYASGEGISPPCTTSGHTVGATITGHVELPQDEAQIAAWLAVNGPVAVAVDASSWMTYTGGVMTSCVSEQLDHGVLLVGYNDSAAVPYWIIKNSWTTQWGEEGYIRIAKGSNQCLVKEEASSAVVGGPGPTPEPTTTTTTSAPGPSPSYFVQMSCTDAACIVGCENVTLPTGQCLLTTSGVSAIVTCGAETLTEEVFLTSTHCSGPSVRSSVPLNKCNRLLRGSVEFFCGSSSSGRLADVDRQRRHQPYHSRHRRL
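Z-FR-AMC hydrolysis (2 uM substrate) by cruzain (1.5 nM) monitored kinetically at ex 360/em 450 nm after 15 min room-temperature compound exposure; 0.01% Triton X-100, pH 5.5, 5 mM DTT.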
RE007 growth inh: less growth of the S. pombe RE007 Vpr strain. S. pombe RE007 Vpr strain, BacTiter-Glo ATP luminescence, 24 h; control for the full effect not named in the record. 360,000 compounds, 0.21% hits. Potency, µM (doses to about 92.2 µM), for the others: top-dose activity change, negative = less growth. AID 651644; active = well fitted falling curve with a large enough effect; inconclusive = small, poorly fitted or top-dose-only effect; inactive = no such curve, though single readings can be large or run the other way;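 further: on the % scale 0 is the no-effect control and ±100 the full control effect; nearly all actives have a fitted effect of over 50% in size; the assay follows cell death caused by Vpr and the record does not say whether a fall means rescue or toxicity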
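Fission yeast RE007 carrying one integrated HIV-1 vpr copy, seeded at OD 0.01 in PMG+AL medium with 23 nL pinned compound. Grown 24 h at 30 degrees; viability read by BacTiter-Glo luminescence after 5 min.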
Cruzain noTriton: inhibitors of Trypanosoma cruzi cruzain without detergent. P25779. purified cruzain, Z-FR-AMC fluorescence, no detergent. Potency, µM, without a hit: max response, negative = inhibition, most hits filed as inhibitors. 200,000 compounds, 2.3% hits. AID 1476;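 further: plate controls were enzyme without inhibitor for no effect and buffer without enzyme for full effect; nearly all actives have a fitted effect of over 40% in size; top concentration of the series not given in the record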
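Detergent-free condition (0.00005% Triton X-100) in acetate buffer pH 5.5 with DTT. 1.5 nM enzyme and compound were pre-mixed 15 min, then 2 uM Z-FR-AMC substrate added; reaction progress from fluorescence change between first and third reads (60 s).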
* marks the source's active call; other numbers are inactive results; u = inconclusive; x = not tested or not shown; & = joins results of further samples; [ ] = another dose, or the depositor's remark. Unless noted, the call rests on the fitted dose curve; in most records, active means well fitted curve in the direction sought with a large enough effect; inconclusive means small, poorly fitted or top-dose-only effect, or another doubt; inactive means no such curve, though single readings can be large; an effect the other way counts as inactive or inconclusive. Potency means the concentration at half of the fitted maximal effect.

1: COC1=CC(=O)OC(c2ccc(OC)cc2)C1 (stereo not drawn)
2: COc1cccc(C(=O)/C=C/Nc2ccc(S(=O)(=O)Nc3cccc(C(C)=O)c3)cc2)c1
3: C=C(C)c1cccc(C(C)(C)NC(=O)N2CCN(c3ccccc3)CC2)c1
4: CCOC(=O)C1CCCN(Cc2nc(N)nc(Nc3ccc(Cl)cc3)n2)C1 (stereo not drawn)
5: Clc1ccc(-c2c[n+](Cc3ccc(Cl)cc3Cl)c3n2CCCCC3)cc1
6: C/C(=N/NC(=O)CSc1nc2ccccc2n1C)c1ccncc1
7: c1ccc(C2[C@H]3CN(CC4CCCCC4)[C@H](c4ccccc4)C34CC2(c2ccccc2)C4)cc1 (stereo partly drawn)
8: C=CCn1c(SCC(N)=O)nc2scc(-c3ccc(C)o3)c2c1=O

| screen / no. | 1 | 2 | 3 | 4 | 5 | 6 | 7 | 8 |
| --- | --- | --- | --- | --- | --- | --- | --- | --- |
| Marburg entry inh | -2%[46.1 µM] | u | x | 7.1µM* | x | 3%[46.1 µM] | x | -17% |
| RE007 growth inh | 3% | 6% | -8% | -2% | 3% | 3% | -14% | 9% |
| Cruzain inh Det | x | -1.7% | x | -9.7% | x | x | 2.8% | x |
| NS1 function inh | x | -12% | 7% | 2% | 0% | x | 11% | 2% |
| 2A StopGo | 20% | -23% | -16% | 28µM* | -13% | -28% | 18% | 38%[activator] |
| Cruzain noTriton | x | u | x | -9% | x | x | -19% | x |
| Lassa entry inh | 0%[46.1 µM] | u | x | -8% | x | 17%[46.1 µM] | x | 14% |
| SARS PLpro yeast | x | -2% | 1% | 0% | 1% | -3% | -4% | 1% |

9: Cc1nn2c(N)c(-c3ccccc3)cnc2c1-c1ccc(Cl)cc1
10: COc1ccc(OCCCN(C)Cc2ccccc2)cc1
11: CCOc1ccccc1N(CC(=O)N1CCCC1)S(C)(=O)=O
12: O=C1c2ccccc2C(=O)c2c1ccc(O)c2O
13: C/C(=N\NC(=O)C(=O)Nc1c(C)n(C)n(-c2ccccc2)c1=O)c1ccc(Cl)s1
14: COC(=O)c1cc(NC(=O)/C=C/c2ccc3c(c2)OCO3)cc(C(=O)OC)c1
15: O=C1c2cccc3cccc(c23)C(=O)N1OS(=O)(=O)c1ccccc1
16: CCOC(=O)c1cc2c(s1)-c1c(C)cccc1OC2

| screen / no. | 9 | 10 | 11 | 12 | 13 | 14 | 15 | 16 |
| --- | --- | --- | --- | --- | --- | --- | --- | --- |
| Marburg entry inh | u | x | u | x | 8%[46.1 µM] | u | 5% | x |
| RE007 growth inh | 12% | 0% | -7% | u | -4% | 11% | 9% | -10% |
| Cruzain inh Det | x | x | x | -8.3%&-5.7% | x | -14% | -13% | -8.8% |
| NS1 function inh | 1% | -11% | 3% | x | -3% | 2% | 3% | -59% |
| 2A StopGo | 64%[activator] | -4% | -10% | -14%&13% | -3% | -10% | 13% | 22% |
| Cruzain noTriton | x | x | x | -6%&2% | x | -1% | 0% | 21% |
| Lassa entry inh | u | x | 2% | x | 17%[46.1 µM] | u | 12% | x |
| SARS PLpro yeast | -4% | -2% | -8% | x | 1% | -1% | -2% | -7% |

17: CCc1ccccc1N(CC(=O)NCC1CCCO1)C(=O)CCC(=O)Nc1nccs1 (stereo not drawn)
18: CN1CCN(c2nc(-c3ccccc3)ncc2S(C)(=O)=O)CC1
19: COc1ccc(CN(CCC#N)CCC2(c3ccccc3)CC(C)N(C)CC2C)cc1OC (stereo not drawn)
20: COc1ccc(CCN(C)C/C=C/c2ccccc2)cc1OC
21: Cc1cc(Oc2ccc(-c3ccccc3)cc2)n2ncnc2n1
22: Cc1cc(C)cc(NC(=O)C2C3C=CC(O3)C2C(=O)O)c1 (stereo not drawn)
23: COc1ccc(S(=O)(=O)N2CCOCC2)cc1NC(=O)CCCOc1ccc(Cl)cc1C
24: COC(=O)c1ccc(CCc2cc(O)ccc2O)cc1

| screen / no. | 17 | 18 | 19 | 20 | 21 | 22 | 23 | 24 |
| --- | --- | --- | --- | --- | --- | --- | --- | --- |
| Marburg entry inh | 5%[46.1 µM] | 0% | 13µM* | x | 21% | 14%[46.1 µM] | u | u |
| RE007 growth inh | -15% | 1% | -22% | 9% | -8% | 4% | -17% | 11µM* |
| Cruzain inh Det | x | x | x | x | 0.9% | x | x | 13% |
| NS1 function inh | -9% | 3% | -11% | 7% | -18% | -3% | x | 11% |
| 2A StopGo | 3% | -2% | -7% | -21% | 40µM* | 28% | -1% | -10% |
| Cruzain noTriton | x | x | x | x | -8% | x | x | 9% |
| Lassa entry inh | 13% | 13% | -15% | x | 13% | -6%[46.1 µM] | u | 13µM* |
| SARS PLpro yeast | 0% | 0% | 1% | 3% | 1% | -14% | 1% | x |

Single records (already shown). Values in the order: Marburg entry inh	RE007 growth inh	Cruzain inh Det	NS1 function inh	2A StopGo	Cruzain noTriton	Lassa entry inh	SARS PLpro yeast
Record of `CCc1ccccc1N(CC(=O)NCC1CCCO1)C(=O)CCC(=O)Nc1nccs1` (stereo not drawn) = 5%[46.1 µM]	-15%	x	-9%	3%	x	13%	0%
Record of `COc1ccc(S(=O)(=O)N2CCOCC2)cc1NC(=O)CCCOc1ccc(Cl)cc1C` = u	-17%	x	x	-1%	x	u	1%

Next part
25: CCOc1ccc(-c2cn3c(n2)sc2cc(C(=O)NCCc4ccc(OC)cc4OC)ccc23)cc1
26: C/C(=N\NC(=O)COc1cccc(C)c1)c1ccc2ccccc2c1O
27: COc1ccc(C(=O)NC(=S)N2C[C@H]3C[C@H](C2)c2cccc(=O)n2C3)cc1
28: CCc1ccc(/C=C2/Sc3ccccc3N(CC(=O)NCC3CCCO3)C2=O)cc1 (stereo not drawn)
29: COc1ccc2c(C)nc(Nc3nc(-c4ccccc4)cc(=O)[nH]3)nc2c1
30: CCN(CC)CCNC(=O)Cn1ncc2c3ccccc3n(Cc3ccc(Cl)cc3)c2c1=O
31: CCc1nn2c(=O)cc(COC(=O)CNC(=O)COc3ccc(C)cc3)nc2s1
32: O=C(CNC(=O)c1ccco1)NCC(=O)OCc1ccccc1Br

| screen / no. | 25 | 26 | 27 | 28 | 29 | 30 | 31 | 32 |
| --- | --- | --- | --- | --- | --- | --- | --- | --- |
| Marburg entry inh | u | x | x | x | u | -10%[46.1 µM] | x | 5% |
| RE007 growth inh | x | -4% | 1% | 13% | 13% | x | x | -7% |
| Cruzain inh Det | -2.4% | x | x | x | x | -3.0% | -3.2% | 4.1% |
| NS1 function inh | x | 5% | 5% | -2% | 6% | x | x | -35% |
| 2A StopGo | -9% | 35%[activator] | 16% | 2% | -8% | -19% | -27% | 1% |
| Cruzain noTriton | -8% | x | x | x | x | 6% | -6% | -8% |
| Lassa entry inh | x | x | x | x | 4.6µM* | 4%[46.1 µM] | u | -14% |
| SARS PLpro yeast | x | -1% | -1% | -10% | 1% | x | x | 6% |

Only Lassa entry inh and NS1 function inh, for three of the compounds above:
entry | mol | Lassa entry inh | NS1 function inh
26 | C/C(=N\NC(=O)COc1cccc(C)c1)c1ccc2ccccc2c1O | x | 5%
27 | COc1ccc(C(=O)NC(=S)N2C[C@H]3C[C@H](C2)c2cccc(=O)n2C3)cc1 | x | 5%
28 | CCc1ccc(/C=C2/Sc3ccccc3N(CC(=O)NCC3CCCO3)C2=O)cc1 (stereo not drawn) | x | -2%

(list continues)
33: COc1ccc(CCN2C(=O)C(Oc3ccccc3C)C2c2ccc3c(c2)OCO3)cc1OC (stereo not drawn)
34: COc1cccc(CNC(=O)C2CCN(S(=O)(=O)c3c(C)noc3/C=C/c3cccs3)CC2)c1
35: CCC(=O)N1c2ccccc2CC1C(=O)NCCc1cc(OC)c(OC)c(OC)c1 (stereo not drawn)
36: Cc1cccc(C(=O)OCC(=O)NN2C(=O)NC3(CCC(C)CC3)C2=O)c1O (stereo not drawn)

| screen / no. | 33 | 34 | 35 | 36 |
| --- | --- | --- | --- | --- |
| Marburg entry inh | u | -4%[46.1 µM] | x | 28% |
| RE007 growth inh | -2% | x | x | u |
| Cruzain inh Det | -6.4% | -3.5% | 6.4% | x |
| NS1 function inh | 4% | x | x | x |
| 2A StopGo | -12% | -6% | 0% | -11% |
| Cruzain noTriton | u | -15% | 0% | x |
| Lassa entry inh | u | -3%[46.1 µM] | -1%[46.1 µM] | -10% |
| SARS PLpro yeast | 0% | x | x | 0% |

6 entries out of the list, sorted by SMILES length, rising:
29: COc1ccc2c(C)nc(Nc3nc(-c4ccccc4)cc(=O)[nH]3)nc2c1
28: CCc1ccc(/C=C2/Sc3ccccc3N(CC(=O)NCC3CCCO3)C2=O)cc1 (stereo not drawn)
36: Cc1cccc(C(=O)OCC(=O)NN2C(=O)NC3(CCC(C)CC3)C2=O)c1O (stereo not drawn)
30: CCN(CC)CCNC(=O)Cn1ncc2c3ccccc3n(Cc3ccc(Cl)cc3)c2c1=O
33: COc1ccc(CCN2C(=O)C(Oc3ccccc3C)C2c2ccc3c(c2)OCO3)cc1OC (stereo not drawn)
34: COc1cccc(CNC(=O)C2CCN(S(=O)(=O)c3c(C)noc3/C=C/c3cccs3)CC2)c1

| screen / no. | 29 | 28 | 36 | 30 | 33 | 34 |
| --- | --- | --- | --- | --- | --- | --- |
| Marburg entry inh | u | x | 28% | -10%[46.1 µM] | u | -4%[46.1 µM] |
| RE007 growth inh | 13% | 13% | u | x | -2% | x |
| Cruzain inh Det | x | x | x | -3.0% | -6.4% | -3.5% |
| NS1 function inh | 6% | -2% | x | x | 4% | x |
| 2A StopGo | -8% | 2% | -11% | -19% | -12% | -6% |
| Cruzain noTriton | x | x | x | 6% | u | -15% |
| Lassa entry inh | 4.6µM* | x | -10% | 4%[46.1 µM] | u | -3%[46.1 µM] |
| SARS PLpro yeast | 1% | -10% | 0% | x | 0% | x |
